Compound activity deposited in PubChem by National Center for Advancing Translational Sciences (NCATS).
TRPML1 inh: blocks the human TRPML1 channel; Q9GZU1; TRPML1-inducible cells, Ca2+ dye fluorescence, FDSS; stronger effect = lower value; inhibition of EC80 agonist-evoked calcium signal; activity change, negative = inhibition, % (no concentration beside the values); actives 0.02% (n = 390,000); AID 624415; in the data active means activity change below about -50%; inconclusive means about -30% to -50%; inactive means above about -30%;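 note: stimulus is agonist 54-4 at its EC80 concentration; % is set by controls: 0 for no effect and ±100 for the full control effect; compound concentration not given in the record; the text of the record puts the active cut at -80%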
Target sequence (Q9GZU1 whole entry, looked up): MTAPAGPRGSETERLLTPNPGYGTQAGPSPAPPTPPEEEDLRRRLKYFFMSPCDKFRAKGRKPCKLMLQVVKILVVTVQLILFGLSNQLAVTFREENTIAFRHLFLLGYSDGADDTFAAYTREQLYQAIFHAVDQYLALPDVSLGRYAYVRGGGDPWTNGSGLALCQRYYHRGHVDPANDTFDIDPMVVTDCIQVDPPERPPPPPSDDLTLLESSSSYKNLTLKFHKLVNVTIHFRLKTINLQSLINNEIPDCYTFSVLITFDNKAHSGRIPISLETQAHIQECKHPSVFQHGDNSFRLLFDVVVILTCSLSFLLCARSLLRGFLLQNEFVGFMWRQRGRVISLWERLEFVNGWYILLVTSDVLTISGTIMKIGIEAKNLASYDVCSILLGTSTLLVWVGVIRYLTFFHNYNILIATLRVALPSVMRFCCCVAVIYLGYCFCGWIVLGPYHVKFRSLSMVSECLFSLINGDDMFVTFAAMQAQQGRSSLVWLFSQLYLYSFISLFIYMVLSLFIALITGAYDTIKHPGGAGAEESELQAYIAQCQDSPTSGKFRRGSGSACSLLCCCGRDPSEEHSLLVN
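Calcium fluorescence in TRPML1-DL cells induced overnight with Tet: a 110 s read after compound pin addition, then a 110 s antagonist read after challenge with 54-4 at 4 uM final (EC80).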
Six1-Eya2 inh: blocks human Six1 binding to Eya2. AlphaScreen GST-Six1/His-Eya2 binding, biochemical; stronger effect = lower value; control for the full effect not named in the record. activity change, % (concentration not given with the values). actives 0.56% (n = 360,000). AID 651725; in the data active = activity change below about -65%; inconclusive = about -30% to -65%; inactive = above about -30%; note: % is set by controls: 0 for no effect and ±100 for the full control effect
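Homogeneous AlphaScreen proximity assay pairing GST-Six1 with His-tagged Eya2 (added as 5X mix: 250 nM and 500 nM) in 50 mM Tris pH 8.0, 300 mM NaCl, 1 mM TCEP. Glutathione donor and nickel acceptor beads; 1 h, 37 °C, dark.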
TRPML1 ag: activates the human TRPML1 channel. Q9GZU1. TRPML1-expressing cells, Ca2+ dye fluorescence, FDSS; host cell line not named in the record; reference of the full effect not given here. activation, % (no concentration beside the values). actives 0.12% (n = 410,000); in the data active = activation above about 50%; inconclusive = about 30% to 50%; inactive = below about 30%; note: 0% is about no effect; the text of the record puts the active cut at 80%
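Agonist activity was taken from a 110 s kinetic Ca2+ dye read on the FDSS after pinning compounds onto TRPML1-DL cells. The cells were seeded at 1,500/well with Tet inducer, incubated about 16 h, then dye-loaded at room temperature.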
CtBP-E1A blk: CtBP/E1A binding inhibition; AlphaScreen GST-E1A/His-CtBP binding, 1536-well; stronger effect = lower value; control for the full effect not named in the record; activity change, % (test concentration not listed); actives 0.49% (n = 340,000); AID 651724; in the data active means activity change below about -65%; inconclusive means about -30% to -65%; inactive means above about -30%; note: % is set by controls: 0 for no effect and ±100 for the full control effect; compound concentration not given in the record
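GST-E1A and His-tagged CtBP (125 nM each as 5X stock) were preincubated with pin-transferred compound for 2 h at 37 °C in the dark, then glutathione donor and nickel acceptor beads were added for 1 h before AlphaScreen reading.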
PINK1 expr mod: modulators of PINK1 expression; PINK1 immunofluorescence, high-content cytometry, 24 h; Potency, µM (titrated, usually from 76.6 µM), for the others: at the top dose activation (PINK1 increase), usual class: activators; actives 0.2% (n = 410,000); AID 624263; active = well fitted activation curve with a large enough effect; inconclusive = small, poorly fitted or top-dose-only effect; inactive = flat fitted curve, though single readings scatter; cell line not stated here;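 note: potency is the fitted concentration of half-maximal effect; % of control where 0% means no effect; nearly all actives have a fitted effect of over 65% in size; a mitochondrial uncoupler was the plate control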
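A stable cell line was treated with compounds at 5 concentrations for 24 hours, with CCCP as control. PINK1 levels and mitochondrial localization were measured by immunofluorescence with mitochondrial, cell and nuclear markers after fixation, read by laser-scanning cytometry.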
D2 ag: agonists of human D2 dopamine receptor (beta-arrestin); actives 0.084% (n = 360,000); DiscoveRx PathHunter D2 beta-arrestin, luminescence, 90 min; 100% = 57 uM dopamine signal; activation, % (test concentration not listed); in the data active = activation above about 40%; inconclusive = about 15% to 40%; inactive = below about 15%; note: compound concentration not given in the record; the text of the record calls up to 30% inactive
Target sequence (P14416 whole entry, looked up): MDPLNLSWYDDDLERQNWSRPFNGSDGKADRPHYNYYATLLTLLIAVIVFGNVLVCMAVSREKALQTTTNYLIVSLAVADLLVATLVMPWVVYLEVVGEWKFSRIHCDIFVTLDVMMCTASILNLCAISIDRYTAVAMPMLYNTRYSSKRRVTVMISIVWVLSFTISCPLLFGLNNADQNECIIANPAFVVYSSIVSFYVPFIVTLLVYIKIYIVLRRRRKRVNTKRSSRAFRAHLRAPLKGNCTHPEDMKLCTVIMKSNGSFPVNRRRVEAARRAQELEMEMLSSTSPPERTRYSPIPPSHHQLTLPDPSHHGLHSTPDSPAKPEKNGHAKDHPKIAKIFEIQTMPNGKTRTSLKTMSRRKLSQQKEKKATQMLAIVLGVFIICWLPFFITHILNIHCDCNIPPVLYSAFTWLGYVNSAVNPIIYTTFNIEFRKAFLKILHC
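Agonist mode: compounds alone added to overnight-plated D2 PathHunter cells for 90 min at 37 C, with 57 uM final dopamine (EC100) defining full response. Beta-arrestin recruitment detected by chemiluminescent reagent, read after 1 h at ambient temperature.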
* = called active by the depositor; . = not tested or not shown; [ ] = dose if it differs, or a comment. Hits appear at their usual frequency. Share with any hit: about 1%.

cpd	compound	TRPML1 inh	Six1-Eya2 inh	TRPML1 ag
1	Fc1ccc(C(CCCn2nnc(-c3cccnc3)n2)c2ccc(F)cc2)cc1	27	6	4.2
2	O=C(Cn1cccc1C(=O)c1ccccc1)NCCCN1CCc2ccccc2C1	4	-8	4.1
3	Cc1ccc(S(=O)(=O)N2CCCCC2)cc1C(=O)NCCc1ccccc1	13	19	-0.3
4	COc1ccc(NC(=S)N2CCN(S(C)(=O)=O)CC2)cc1OC	-12	11	-0.1
5	CCOc1cc(C(=O)N(C)CC(=O)Nc2cccc(F)c2)ccc1OCC(=O)N1CCCCC1	15	-4	1.1
6	COc1ccc(-c2[nH]ncc2/C=N\NS(=O)(=O)c2ccc(Cl)cc2)cc1	14	6	-0.2
7	Cc1ccccc1CN1C(=O)c2ccccc2C1c1nnnn1C(C)C (stereo not given)	.	3	-0.9
8	CC(C)c1ccccc1NC(=S)NC(=O)C1CCCCC1	-1	-2	9.2
9	CCCC1(c2ccccc2)NC(=O)N(CC(=O)Nc2ccc3c(c2)OCCO3)C1=O (stereo not given)	-9	1	2.0
10	NS(=O)(=O)c1cnccc1NCCc1ccccc1	15	-3	4.7

cpd	CtBP-E1A blk	PINK1 expr mod	D2 ag
1	-3	-4.7%	1.9
2	10	0.5%	-1.1
3	-1	0.3%	-3.0
4	-3	0.2%	0.7
5	10	0.0%	-3.8
6	-3	1.9%	1.4
7	2	0.7%	.
8	5	10%	-5.8
9	.	1.6%	-4.3
10	-1	0.5%	-2.2

Copied from the list:
cpd 9 in PINK1 expr mod has 1.6%
cpd 6 in PINK1 expr mod has 1.9%
cpd 8 in CtBP-E1A blk has 5
cpd 3 in TRPML1 inh has 13

Additional results:
cpd	compound	TRPML1 inh	Six1-Eya2 inh	TRPML1 ag
11	O=c1nc2c(-c3ccc(F)cc3Cl)n[nH]n2c2ccccc12	-16	.	-1.0
12	Cc1ccc(S(=O)(=O)c2cn(C)c3cc(N4CCCCC4)c(F)cc3c2=O)cc1	28	.	-0.9
13	CCOC(=O)c1ccccc1Nc1cc(C)nc2nc(C)nn12	-4	-11	3.3
14	CCN(CC)CCCN(Cc1cc2cc3c(cc2[nH]c1=O)OCO3)C(=S)Nc1ccccc1	20	-2	0.3
15	O=C(NCCCCNC(=O)c1c(F)c(F)c(F)c(F)c1F)c1c(F)c(F)c(F)c(F)c1F	17	6	0.1
16	Cc1cccc(CCn2c(=O)c3ccccc3n(Cc3cccc(F)c3)c2=O)c1	5	.	0.2
17	Cc1c(/C=C(\C#N)c2nn(-c3ccccc3)c(N)c2C#N)c2ccccc2n1Cc1ccc(F)cc1	-10	1	-0.1
18	O=C(c1cc(-c2ccc(Cl)cc2)nc2ccccc12)N1CCC1	-4	0	0.1
19	O=C(Nc1ccc2oc(-c3ccc(O)c(Br)c3)nc2c1)c1cc2ccccc2o1	3	.	-0.3
20	CCc1ncc(/C=C2\C(=O)Nc3ccccc32)[nH]1	-13	-3	0.8

cpd	CtBP-E1A blk	PINK1 expr mod	D2 ag
11	.	-0.8%	.
12	.	0.6%	.
13	-7	-3.0%	-1.5
14	-4	4.7%	-0.6
15	-2	5.1%[38.3 µM]	-2.2
16	.	1.5%	.
17	-3	16%	-2.5
18	-1	-0.4%	2.7
19	.	0.8%	.
20	-3	0.7%	-0.8

cpd	compound	TRPML1 inh	Six1-Eya2 inh	TRPML1 ag
21	CCc1c(C)c2nncn2[nH]c1=O	-14	2	2.2
22	O=C(CSc1oc(-c2ccccc2)nc1S(=O)(=O)c1ccccc1)NCC1CCCO1 (stereo not given)	-2	4	0.0
23	Cc1cccc(Cn2cc(S(=O)(=O)c3cccc(C)c3)c(=O)c3cc(F)c(N4CCOCC4)cc32)c1	0	.	-0.2
24	CC(C)C[C@H](NC(=O)c1[nH]cnc1C(=O)N[C@H](C)c1ccccc1)C(=O)OC(C)(C)C	-2	-7	2.9
25	Cc1snc(SCC(=O)N/N=C(\N)COc2cccc(C(F)(F)F)c2)c1C#N	-12	0	-0.7
26	O=C(Nc1ncn[nH]1)c1ccc(S(=O)(=O)N2CCOCC2)cc1	-7	-15	0.2
27	N#Cc1cc([N+](=O)[O-])c(-n2nnc3ccccc32)c([N+](=O)[O-])c1	27	3	0.1
28	COc1cccc(Sc2nc(-c3ccccc3)ncc2S(C)(=O)=O)c1	6	2	2.3
29	Cc1ccc(S(=O)(=O)c2nc(-c3ccc(F)cc3)oc2SCC(N)=O)cc1	16	-6	1.9
30	COC(=O)c1ccc(S(=O)(=O)NCCc2ccccc2OC)n1C	-1	0	0.5

cpd	CtBP-E1A blk	PINK1 expr mod	D2 ag
21	-2	0.3%	1.3
22	0	-1.9%	-2.3
23	.	-1.2%	.
24	-2	-1.1%	-4.4
25	1	12%	0.1
26	.	1.9%	-5.7
27	1	-1.1%	-4.8
28	.	1.0%	-4.6
29	-5	0.1%	1.3
30	0	-0.3%	2.4

cpd	compound	TRPML1 inh	Six1-Eya2 inh	TRPML1 ag
31	COc1ccc(OC(=O)c2cc3ccccc3o2)cc1	31	26	1.8
32	COn1c(=O)c(-c2cccs2)[n+]([O-])c2ccccc21	49	-20	4.1
33	CCC1=Nc2cc(C(=O)O)ccc2Sc2ccc(Cl)cc21	6	3	0.2
34	CCc1ccccc1NC(=O)C(Cc1cccc(OC)c1OC)c1nn[nH]n1 (stereo not given)	2	-2	-0.1
35	CCOc1ccc(CNC(=O)c2nn(-c3ccc(OC)cc3)c(=O)c3c2c2ccccc2n3C)cc1	7	.	1.3
36	CCNC(=O)CC1SC(=Nc2ccc(C)cc2)NC1=O (stereo not given)	-10	1	-0.2
37	CCN(CC)C1Oc2cc3c(cc2C(c2cc(OC)c(O)c(OC)c2)C1C)OCO3 (stereo not given)	13	-2	1.4
38	COCCN(C(=O)Cc1cccs1)C(C(=O)NC1CCCC1)c1ccc(OC)c(OC)c1 (stereo not given)	-10	5	2.0
39	CC(C(=O)O)n1nc(-c2ccccc2)c2ccccc21 (stereo not given)	7	5	1.1
40	CC(NC(=O)Nc1ccc([N+](=O)[O-])cc1)C(c1cccs1)N1CCCC1 (stereo not given)	-10	-6	1.3

cpd	CtBP-E1A blk	PINK1 expr mod	D2 ag
31	15	1.6%	2.0
32	-13	-2.2%	8.4
33	6	0.4%	-3.1
34	-8	-1.9%	0.0
35	.	0.2%	.
36	0	0.1%	-0.1
37	2	0.8%	5.5
38	1	1.5%	4.5
39	.	1.5%	-11
40	-15	-0.7%	-3.7

cpd	compound	TRPML1 inh	Six1-Eya2 inh	TRPML1 ag
41	O=C(NC1CC1)c1cc(-c2ccccn2)nc2ccccc12	11	0	-0.5
42	CCOc1ccc(Cl)cc1-c1cc(C(=O)Nc2ccc(OC)cc2OC)[nH]n1	.	-16	-0.6
43	CCOC(=O)c1cc(C#N)c(SCC(=O)OC)[nH]c1=O	24	-4	0.0
44	CCOC(=O)NC1(NC2CCCCC2)Oc2ccccc2O1	-9	4	-0.6
45	COc1ccc(Cl)cc1S(=O)(=O)Nc1ccncc1	-9	-5	-0.6
46	CC1CCN(C(=O)c2cc(-c3ccco3)on2)CC1	-9	6	0.0
47	CCc1cc(C(=O)COc2ccccc2F)c(O)cc1O	0	-2	2.0
48	COc1ccc(-c2noc(Cc3cccs3)n2)cc1	-3	70	1.3
49	O=C(COC(=O)C1CCCC1)Nc1cccc(Cl)c1Cl	7	6	2.5
50	CCn1c(SCCC#N)nnc1-c1ccncc1	7	0	0.6

cpd	CtBP-E1A blk	PINK1 expr mod	D2 ag
41	-6	0.8%	0.3
42	-7	6.4%	3.4
43	-2	-0.9%	-2.7
44	3	8.0%[38.3 µM]	0.1
45	4	-0.2%	-6.1
46	5	3.5%	-3.7
47	2	3.8%	3.0
48	60	-0.6%	-3.8
49	25	3.9%	-2.8
50	-2	.	-1.6

cpd	compound	TRPML1 inh	Six1-Eya2 inh	TRPML1 ag
51	Cc1ccc(NC(=O)CCn2c(=O)oc3ccccc32)cc1	-10	38	-0.3
52	Cc1ccc(/C=C/C(=O)O)cc1S(=O)(=O)N(C)CCO	-19	2	0.0
53	O=C(NCC1OCCc2ccccc21)c1cc(COc2c(F)cccc2F)on1 (stereo not given)	-5	5	2.5
54	CCOc1ccc(CN2CCN(Cc3cc4c(cc3Cl)OCO4)CC2CCO)cc1 (stereo not given)	11	-2	1.7
55	O=[N+]([O-])c1ccc(COc2ccccc2CN2CCOCC2)cc1	-10	-4	1.8
56	CCOC(=O)c1c(NC(=O)CSC2=NN3CCCC(=O)N=C3S2)sc2c1CCCCC2	-3	-2	0.7
57	CC(=O)OCCOc1nc(N(C)C)nc(N(C)C)n1	-12	4	-0.4
58	COCCNC(=S)N1CCOCC1	3	8	-0.1
59	CCOC(=O)C1=CCN(S(=O)(=O)c2ccc(C)cc2)C1c1ccc(Br)cc1 (stereo not given)	.	0	-0.7
60	CCCC(C(=O)NCc1ccco1)N(C(=O)CNS(=O)(=O)c1ccccc1)c1ccc(OC)cc1 (stereo not given)	-20	1	-0.6

cpd	CtBP-E1A blk	PINK1 expr mod	D2 ag
51	0	0.6%	-2.2
52	2	-0.7%	0.0
53	16	3.0%	2.0
54	-14	13%	2.3
55	-1	-0.9%	2.8
56	-1	2.9%	-4.4
57	2	37%[38.3 µM]	-2.2
58	-22	0.7%	-1.4
59	0	2.5%	-3.6
60	1	-0.8%	-1.8

cpd	compound	TRPML1 inh	Six1-Eya2 inh	TRPML1 ag
61	CC(=O)Nc1cccc(C(=O)OC(C)C(=O)NCc2ccc3c(c2)OCO3)c1 (stereo not given)	15	5	0.4
62	CC(C)C(c1nnnn1Cc1ccco1)N1CCN(c2nc3ccccc3s2)CC1 (stereo not given)	3	-23	22
63	O=C(NCc1cccnc1)C1CCN(S(=O)(=O)c2cccnc2)CC1	1	13	0.0
64	Cc1c(NC(=O)CSc2nc3c(cnn3-c3ccccc3)c(=O)[nH]2)c(=O)n(-c2ccccc2)n1C	-6	1	0.6
65	Cc1ccc(Cl)cc1N(C)C(=O)Cn1ncc2c([nH]c3ccccc32)c1=O	6	6	1.3
66	NCC1CCN(c2nc3ccccc3c3c2CCCC3)CC1	-4	8	0.5
67	Cc1cc(O)ccc1-c1cc(C(=O)NCc2cc(C(F)(F)F)cc(C(F)(F)F)c2)[nH]n1	.	-6	2.0
68	Cc1ccc2nc(N3CCOCC3)c(C=O)c(=O)n2c1	1	0	-0.6

cpd	CtBP-E1A blk	PINK1 expr mod	D2 ag
61	3	0.1%	-3.2
62	-13	1.6%	-1.3
63	3	-1.6%	-1.9
64	3	0.1%	1.0
65	0	4.3%	-4.1
66	2	-2.0%	-2.4
67	0	9.4%	11
68	6	-0.5%	-2.3

A draw from above in order of SMILES length, high to low:
cpd	compound	TRPML1 inh	Six1-Eya2 inh	TRPML1 ag
32	COn1c(=O)c(-c2cccs2)[n+]([O-])c2ccccc21	49	-20	4.1
33	CCC1=Nc2cc(C(=O)O)ccc2Sc2ccc(Cl)cc21	6	3	0.2
50	CCn1c(SCCC#N)nnc1-c1ccncc1	7	0	0.6

cpd	CtBP-E1A blk	PINK1 expr mod	D2 ag
32	-13	-2.2%	8.4
33	6	0.4%	-3.1
50	-2	.	-1.6
